Bioassay records from PubChem BioAssay.
FGF22 binding: FGF22 (human) thermal shift binding; 1.5% of 340,000 active; AID 651658; recombinant FGF22 thermal shift, SYPRO orange fluorescence; percent of sucrose octasulfate shift, DMSO zero; Q9HCT0; calls only at 9.99 µM;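 active = melting point raised past a set limit in the mean and every replicate; three in four hits are not shown here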
Target sequence (Q9HCT0 whole entry, looked up): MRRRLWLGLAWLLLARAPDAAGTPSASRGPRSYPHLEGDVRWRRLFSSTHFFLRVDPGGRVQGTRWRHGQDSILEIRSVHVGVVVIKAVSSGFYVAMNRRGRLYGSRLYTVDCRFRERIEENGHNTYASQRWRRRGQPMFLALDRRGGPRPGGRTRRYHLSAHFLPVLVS
E coli growth: blocks Escherichia coli growth | OD600, 23 h; stronger effect = lower value | OD600 absorbance (concentration not given with the values) | 0.21% of 330,000 active;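 active = OD600 absorbance below the run mean of sample wells minus 3.6 SD, in any replicate, cut at about 0.56 in these data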;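 also: stock transfer was 300 nL into about 60 µL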
HNF4A DNA FP: change in binding of human HNF4 alpha to DNA. AID 1224865. 0.3% of 360,000 active. HNF4a-FITC DNA binding, fluorescence polarization, 1 h. P41235. activity change, % at 10 µM; in the data active = activity change above about 30%, passing the limit was not always enough;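 also: controls were the assay level and a saturating level of protein; the project sought stronger binding though the title names inhibitors; some compounds called inactive have numbers as strong as hits; positive values seem to mean higher polarization but the record does not say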
ALR H2O2 inh: human ALR oxidase inhibition via reduced H2O2; P55789; purified ALR, DTT oxidation, H2O2 HRP-luminol luminescence; inhibition, % (test concentration not listed); 3.8% of 290,000 active;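 active = mean and each replicate at 75% or more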;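 also: stock transfer was 7.5 nL into about 7.5 µL; 0% = neutral wells and 100% = wells with inactivated enzyme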
Target sequence (P55789 whole entry, looked up): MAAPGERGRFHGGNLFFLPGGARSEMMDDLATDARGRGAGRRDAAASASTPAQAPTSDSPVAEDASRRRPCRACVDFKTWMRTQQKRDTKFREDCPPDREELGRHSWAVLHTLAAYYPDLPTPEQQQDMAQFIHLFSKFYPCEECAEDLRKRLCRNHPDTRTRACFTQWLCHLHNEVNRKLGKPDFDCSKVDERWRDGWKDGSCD
LANA-H2A inh: blocks KSHV LANA binding to histone H2A/H2B; Q9QR71; 0.6% of 320,000 active; AID 2629; inhibition, % (test concentration not listed); cell-free LANA-H2A/H2B peptide, fluorescence polarization; in the data active = inhibition mostly above about 10%, no sharp cut-off; inactive = mostly below about 6.7%;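 also: stock transfer was 7.5 nL into about 10 µL; 0% = median of vehicle wells and 100% = median of positive control wells; one replicate is shown; the record names a cut of 25% in any replicate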
B2AR ag: agonists of human beta-2 adrenergic receptor inducing internalization; response, % (test concentration not listed); P07550; Am2.2-beta2AR cells, FAP receptor internalization, flow cytometry; reference of the scale not given here; AID 504454; 0.43% of 340,000 active;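 active = response above a set limit, near 3 SD of response in nonfluorescent compounds, cut at about 42% in these data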;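 also: stock transfer was 100 nL into about 11 µL; a reference agonist was the positive control; negative values mostly stem from fluorescent compounds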
UCH37 DUB inh: blocks the human deubiquitinase UCH37. Q9Y5K5. purified proteasome/UCH37, Ub-AMC cleavage fluorescence. inhibition, % (concentration not given with the values). 0.33% of 330,000 active. AID 588478;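 active = mean of two replicates above 20%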;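 also: 0% = compound-free wells with enzyme and 100% = wells lacking proteasome; stock transfer was 100 nL into about 20 µL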
Target sequence (Q9Y5K5 whole entry, looked up): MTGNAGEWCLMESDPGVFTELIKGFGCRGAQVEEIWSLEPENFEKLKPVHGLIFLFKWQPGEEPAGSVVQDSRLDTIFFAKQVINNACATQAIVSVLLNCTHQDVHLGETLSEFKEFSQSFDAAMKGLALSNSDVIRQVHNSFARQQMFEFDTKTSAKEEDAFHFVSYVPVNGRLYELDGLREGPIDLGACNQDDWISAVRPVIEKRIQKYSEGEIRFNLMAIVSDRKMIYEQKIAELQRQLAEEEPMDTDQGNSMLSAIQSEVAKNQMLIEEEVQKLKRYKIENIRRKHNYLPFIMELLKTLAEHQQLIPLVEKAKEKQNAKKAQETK
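Assay system: Proteasome-bound UCH37. Buffer or medium: pH 7.4 Tris-HCl (50 mM) with ovalbumin, ATP-MgCl2, DTT. Incubation: 30 min preincubation with enzyme, 25 min cleavage at room temperature. Measured by: fluorescence, ex 355 nm, em 460 nm. Read-out basis: percent inhibition. Control set: wells without proteasome as full block, compound-free enzyme plus substrate as uninhibited.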
Active calls of the source: *.

For COc1ccc(-c2c(-c3cc(OC)cc(OC)c3)n(C)c3ccc(-c4ccc5c(c4)OCCO5)cc23)cc1 the results were FGF22 binding inactive, E coli growth 0.7, HNF4A DNA FP 1.3, ALR H2O2 inh 4, LANA-H2A inh 2.1, B2AR ag 7 and UCH37 DUB inh -55.
Screening Cc1ccc(C(=O)N2CCOCC2)cc1Cl returned E coli growth 0.73, HNF4A DNA FP -0.5, ALR H2O2 inh -15, LANA-H2A inh 0.2, B2AR ag -3 and UCH37 DUB inh -0.6.
For CCNC(=S)N1CCCC(C(N)=O)C1 (centres undefined) the results were FGF22 binding inactive, E coli growth 0.71, HNF4A DNA FP -3.3, ALR H2O2 inh 2, LANA-H2A inh -1.8, B2AR ag -6 and UCH37 DUB inh 2.5.
CC(CNc1ccc([N+](=O)[O-])c2cccnc12)Nc1c([N+](=O)[O-])cc(C(F)(F)F)cc1[N+](=O)[O-] (centres undefined) was read as E coli growth 0.73, HNF4A DNA FP -1.6, ALR H2O2 inh -1, LANA-H2A inh -2.4, B2AR ag 1 and UCH37 DUB inh 6.0.
Screening Cc1c(Cl)cnc(NC(=O)CSc2nnc(C)n2Cc2ccccc2)c1Cl returned E coli growth 0.76, HNF4A DNA FP 2.2, LANA-H2A inh 12, B2AR ag -5 and UCH37 DUB inh -0.4.
Screening CC(C)(C)C(CN1CCCC1)OC(=O)c1ccccc1 (centres undefined) returned FGF22 binding inactive, E coli growth 0.67, HNF4A DNA FP 7.4, ALR H2O2 inh 4, LANA-H2A inh 2.7, B2AR ag -6 and UCH37 DUB inh 4.1.
`COCC(=O)N1CCC(Oc2ccc(C(=O)NC(C)c3csc(C)n3)cc2)CC1` (centres undefined) gave FGF22 binding inactive, E coli growth 0.67, HNF4A DNA FP -1.8, ALR H2O2 inh -4, LANA-H2A inh 1.9, B2AR ag -1 and UCH37 DUB inh 3.8.
Screening O=C(CSc1ccc(-c2ccc(-n3cccn3)cc2)nn1)Nc1ccc([N+](=O)[O-])cc1 returned FGF22 binding inactive, E coli growth 0.67, HNF4A DNA FP -4.6, ALR H2O2 inh -22, LANA-H2A inh -6.8, B2AR ag -9 and UCH37 DUB inh 1.8.
For COc1ccc(C2c3c(ncn(Cc4ccco4)c3=N)Oc3ccc4ccccc4c32)cc1 (centres undefined) the results were FGF22 binding inactive, E coli growth 0.7, HNF4A DNA FP 1.9, ALR H2O2 inh 3, LANA-H2A inh -3.4, B2AR ag 23 and UCH37 DUB inh 0.2.
Screening Cc1ccc(NC(=O)C2CC(=O)Nc3ncnn32)cc1Cl (centres undefined) returned FGF22 binding inactive, E coli growth 0.66, HNF4A DNA FP 2.9, ALR H2O2 inh -4, LANA-H2A inh -3.9, B2AR ag -1 and UCH37 DUB inh 3.9.
Screening N/C(=N\OC(=O)COc1ccc(Br)cc1Cl)c1ccncc1 returned FGF22 binding inactive, E coli growth 0.64, HNF4A DNA FP -2.4, ALR H2O2 inh -1, LANA-H2A inh -0.8, B2AR ag 1 and UCH37 DUB inh 2.0.
COc1ccc2c(c1)O[C@H]1c3ccc(O)cc3OC[C@@H]21 was read as FGF22 binding inactive, E coli growth 0.73, HNF4A DNA FP 3.7, ALR H2O2 inh 20, LANA-H2A inh -2.4, B2AR ag 13 and UCH37 DUB inh 0.8.
For CC(C)(C)c1ccc(C(=O)NCCCNC(=O)c2ccco2)cc1 the results were FGF22 binding inactive, E coli growth 0.63, HNF4A DNA FP -0.6, ALR H2O2 inh -1, LANA-H2A inh 9.2, B2AR ag -4 and UCH37 DUB inh 1.8.
CC(=O)c1ccc(N2C(=NC(=O)C(C)C)SC3CS(=O)(=O)CC32)cc1 (centres undefined) was read as E coli growth 0.71, HNF4A DNA FP -1.6, ALR H2O2 inh -4, LANA-H2A inh -3.0, B2AR ag 3 and UCH37 DUB inh 4.0.
`CC(O)CNc1nc(N)[nH]c(=O)c1N=Nc1ccccc1` (centres undefined) gave FGF22 binding inactive, E coli growth 0.65, HNF4A DNA FP 1.2, B2AR ag -1 and UCH37 DUB inh 11.
O=C(CCc1c[nH]c2ccccc12)OCc1cccc(C(F)(F)F)c1 was read as FGF22 binding inactive, E coli growth 0.74, HNF4A DNA FP 1.4, ALR H2O2 inh 3, LANA-H2A inh -1.9, B2AR ag -5 and UCH37 DUB inh 5.3.
`CCCCCc1ccc(S(=O)(=O)NCCc2ccncc2)cc1` gave E coli growth 0.65, HNF4A DNA FP 0.8, ALR H2O2 inh 0, LANA-H2A inh -1.7, B2AR ag -5 and UCH37 DUB inh 2.6.
For O=C(Cc1ccccc1)Nc1ncccc1Cl the results were FGF22 binding inactive, E coli growth 0.64, HNF4A DNA FP 2.1, ALR H2O2 inh 0, LANA-H2A inh -0.3, B2AR ag -1 and UCH37 DUB inh 2.6.
COc1cccc2cc(C(=O)N3C(C)CCCC3C)c(=O)oc12 (centres undefined) was read as E coli growth 0.73, HNF4A DNA FP -0.2, ALR H2O2 inh -5, LANA-H2A inh 4.4, B2AR ag 9 and UCH37 DUB inh -0.3.
Cn1nccc1C(=O)N1CCN(c2ncccn2)CC1 was read as FGF22 binding inactive, E coli growth 0.68, HNF4A DNA FP 1.7, ALR H2O2 inh -2, LANA-H2A inh -2.2, B2AR ag -4 and UCH37 DUB inh -3.9.
Screening O=C(N/N=C/c1cccc(OC(=O)N2CCOCC2)c1)c1cccs1 returned HNF4A DNA FP 5.3, ALR H2O2 inh 2, LANA-H2A inh 6.2 and B2AR ag 5.
`Cc1ccc(S(=O)(=O)NCC(=O)N(CC(=O)NCc2ccc(F)cc2)CC2CCCO2)cc1` (centres undefined) gave FGF22 binding inactive, E coli growth 0.71, HNF4A DNA FP -1.9, LANA-H2A inh 2.6, B2AR ag -7 and UCH37 DUB inh 3.8.
For O=C(NCC1OCCCN1S(=O)(=O)c1cc(F)ccc1F)C(=O)NC1CCCCC1 (centres undefined) the results were FGF22 binding inactive, E coli growth 0.72, HNF4A DNA FP 6.6, ALR H2O2 inh 4, LANA-H2A inh -1.4, B2AR ag -11 and UCH37 DUB inh 2.6.
For COc1cccc(C2=NO[C@@H]3C(=O)N(c4ccc5c(c4)OCCO5)C(=O)[C@H]23)c1OC the results were E coli growth 0.72, HNF4A DNA FP -4.3, ALR H2O2 inh -27, LANA-H2A inh -2.1, B2AR ag -3 and UCH37 DUB inh 1.8.
For CCC(=O)c1ccc(N2CCOCC2)c(F)c1 the results were E coli growth 0.74, HNF4A DNA FP -1.1, ALR H2O2 inh 0, LANA-H2A inh -8.2, B2AR ag -2 and UCH37 DUB inh -3.2.
`Cc1ccc2cccc(S(=O)(=O)N3CCN(c4ccccc4F)CC3)c2n1` gave FGF22 binding inactive, E coli growth 0.73, HNF4A DNA FP 1.5, ALR H2O2 inh -1, LANA-H2A inh 0.3, B2AR ag 8 and UCH37 DUB inh 4.0.
For COc1cccc(Nc2nc3ccccc3n2C(C)C)c1 the results were E coli growth 0.74, HNF4A DNA FP 3.8, ALR H2O2 inh 0, LANA-H2A inh 3.4, B2AR ag 16 and UCH37 DUB inh 0.4.
Screening O=C(NCc1ccccn1)/C(=C/c1ccco1)NC(=O)c1ccccc1 returned E coli growth 0.71, HNF4A DNA FP -2.3, ALR H2O2 inh -6, LANA-H2A inh 3.3, B2AR ag -10 and UCH37 DUB inh 3.5.
`COc1ccc(-n2c(C)nc3cc(C(=O)N4CCOCC4)ccc32)cc1` gave E coli growth 0.76, HNF4A DNA FP 6.5, ALR H2O2 inh -8, LANA-H2A inh 3.2, B2AR ag -2 and UCH37 DUB inh -1.4.
For CCCCNC(=S)N(C)/N=C/c1ccc(OCC(=O)Nc2ccc(OC)cc2)c(OC)c1 the results were FGF22 binding inactive, HNF4A DNA FP 2.7, LANA-H2A inh -2.9 and B2AR ag 10.
For CCCCOc1ccc(-c2ncc(N)cn2)cc1 the results were FGF22 binding inactive, E coli growth 0.67, HNF4A DNA FP 1.8, ALR H2O2 inh 17, LANA-H2A inh 5.0, B2AR ag -2 and UCH37 DUB inh -10.
NS(=O)(=O)c1ccc(CNC(=O)c2cc(-c3cccs3)nc3ccccc23)cc1 was read as FGF22 binding inactive, E coli growth 0.68, HNF4A DNA FP 1.9, ALR H2O2 inh -4, LANA-H2A inh -2.1, B2AR ag 2 and UCH37 DUB inh -310.
For O=C(COc1ncnc2ccccc12)Nc1ccc(Cl)c([N+](=O)[O-])c1 the results were FGF22 binding inactive, E coli growth 0.67, HNF4A DNA FP -4.7, ALR H2O2 inh 1, LANA-H2A inh 2.2, B2AR ag -2 and UCH37 DUB inh 6.9.
For CC(C)(C)c1ccccc1NC(=O)NC1CCN(Cc2c(F)cccc2Cl)CC1 the results were FGF22 binding inactive, HNF4A DNA FP 0.1, ALR H2O2 inh -18, LANA-H2A inh -1.3 and B2AR ag 10.
For CCOC(=O)CSc1n[nH]c(NC(=O)c2cccc(C(F)(F)F)c2)n1 the results were E coli growth 0.73, HNF4A DNA FP -1.3, ALR H2O2 inh 99*, LANA-H2A inh 0.4, B2AR ag 38 and UCH37 DUB inh 4.9.
`CN(C)c1ccc(-c2nnn(CC(=O)Nc3ccc4c(c3)OCCO4)n2)cc1` gave FGF22 binding inactive, E coli growth 0.7, HNF4A DNA FP 0.1, ALR H2O2 inh -1, LANA-H2A inh 1.7, B2AR ag -1 and UCH37 DUB inh -15.
`O=c1c2ccccc2cnn1Cc1n[nH]c(=S)n1-c1cc(Cl)cc(Cl)c1` gave FGF22 binding inactive, E coli growth 0.7, HNF4A DNA FP 1.0, ALR H2O2 inh 33, LANA-H2A inh -5.7, B2AR ag 0 and UCH37 DUB inh 3.6.
Cc1ccc2nc(SCC(=O)Nc3cccc([N+](=O)[O-])c3)[nH]c2c1 was read as E coli growth 0.67, HNF4A DNA FP 1.5, ALR H2O2 inh -8, LANA-H2A inh 3.4, B2AR ag -2 and UCH37 DUB inh 3.2.
For CON1C(=O)C(=O)N(OC)C2CCCCC21 (centres undefined) the results were E coli growth 0.65, HNF4A DNA FP -2.0, B2AR ag 3 and UCH37 DUB inh -0.2.
`O=C(NCc1ccccc1Cl)C1CCN(S(=O)(=O)c2ccc(N3CCCC3=O)cc2)CC1` gave FGF22 binding inactive, E coli growth 0.67, HNF4A DNA FP 0.5, ALR H2O2 inh 3, LANA-H2A inh 5.2, B2AR ag -3 and UCH37 DUB inh 5.4.
Screening COc1ccc(C(C)(C)NC(=O)C2CCC(=O)N(C3CCCC3)C2)cc1OC (centres undefined) returned FGF22 binding inactive, E coli growth 0.67, HNF4A DNA FP -1.7, ALR H2O2 inh -1, LANA-H2A inh 1.3, B2AR ag 5 and UCH37 DUB inh 0.7.
For S=c1[nH]nc(C2CCCCC2)n1/N=C/c1ccncc1 the results were FGF22 binding inactive, HNF4A DNA FP 1.4, ALR H2O2 inh -1, LANA-H2A inh 3.6 and B2AR ag 2.
`S=c1nc(-c2ccccc2)n(Cc2cccnc2)c2c1CCCC2` gave E coli growth 0.67, ALR H2O2 inh 94*, LANA-H2A inh 1.5 and UCH37 DUB inh 12.
`CN(CC(=O)N1CCCCCC1)S(=O)(=O)c1cccc2cccnc12` gave FGF22 binding inactive, E coli growth 0.73, HNF4A DNA FP 5.5, ALR H2O2 inh -74, LANA-H2A inh 2.1, B2AR ag 4 and UCH37 DUB inh 1.6.
For COc1cc2c(cc1NC(=O)C(C)OC(=O)C1CC(=O)N(Cc3ccco3)C1)oc1ccccc12 (centres undefined) the results were E coli growth 0.71, HNF4A DNA FP 2.7, ALR H2O2 inh -2, LANA-H2A inh 3.6, B2AR ag 8 and UCH37 DUB inh 0.6.
Screening COc1cc(/C=N\NC(=O)c2ccc(C)nc2)ccc1OC(=O)c1ccc2c(c1)OCO2 returned HNF4A DNA FP 1.4, ALR H2O2 inh -5, LANA-H2A inh 4.4 and B2AR ag -4.

Some of the compounds tested, so the mix of outcomes need not match the whole.
